High-throughput results: PubChem BioAssay, ICCB-Longwood Screening Facility, Harvard Medical School
KSHV LANA nucl: LANA-nucleosome interaction inhibition. AID 720717. FITC-LANA1-23 / chicken nucleosome fluorescence polarization; active compounds read low. 0.3% of 51,000 active. z-score (concentration not given with the values);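 active means both repeat wells score below -2 in polarization z-score versus plate sample wells, excluding overly bright wells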;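 further: 100 nL library stock added to about 30 µL; numbers are from one replicate; some results filed as inactive read as strong as hits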
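Material: Purified chicken nucleosomes with FITC-labelled LANA N-terminal peptide (1-23) | Reagent: 50 nM FITC-LANA1-23 probe | Medium: TEN-BT buffer, pH 7.5 | Times: 10–45 min incubation at room temperature | Detection: Fluorescence polarization | Replication: Duplicates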
Ab BasE inh: inhibitors of Acinetobacter baumannii siderophore enzyme BasE | purified BasE, fluorescence polarization binding displacement | AID 485350 | inhibition, % (test concentration not listed) | 0.1% of 84,000 active;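 active means both replicates above 25% with normal brightness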;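 further: 0% = negative plate control signal and 100% = positive plate control signal; stock transfer was 100 nL into about 30 µL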
Active calls of the source: *; · = not tested or not shown; & = joins results of further samples. Some of the compounds tested; rates above refer to the full screens.

Structure,KSHV LANA nucl,Ab BasE inh
CCCNC(c1ccccc1)c1ccncc1 (stereo not given),-0.9,-0.2
c1ccc(-c2ncc(-c3ccn[nH]3)s2)cc1,-0.65,·
NC(=S)NN=C1c2cc(S(=O)(=O)N3CCOCC3)ccc2-c2ccc(S(=O)(=O)N3CCOCC3)cc21,-0.23,1.7
O=C(Nc1cccc(F)c1)N1CCOCC1,-0.091,-0.8
CCCNC(=O)C1CCN(c2nn3cc(-c4ccc(OC)cc4)nc3s2)CC1,1.2,-2.8
N#Cc1c(N)n(CCN2CCOCC2)c2nc3ccccc3nc12,·,1.5
Oc1ccccc1C1=CC(c2ccc(Br)cc2)n2ncnc2N1 (stereo not given),-0.031,-2.2
CCN1CCN(C(=O)C23CC4CC(C2)CC(c2ccc(C)cc2)(C4)C3)CC1,·,0.6
CC1CN(c2nc(N3CCCC3)nc3ccccc23)CC(C)N1 (stereo not given),-1.6,-5.1
COc1ccc(C(=O)Nc2ccccc2C(=O)Nc2ccccn2)cc1,-0.14,-0.7
N#Cc1ccccc1S(=O)(=O)N1CCOCC1,0.59,0.2
COC(=O)/C=C1/OC(c2ccccc2)=CC1=O,·,-0.4
Cc1nn(Cc2ccccc2)c(Cl)c1/C=C/C(=O)OCC(=O)N1CCN(C(=O)c2ccco2)CC1,·,-2.7
CC(C)CC(=O)Nc1ccc(S(=O)(=O)NCc2ccco2)cc1,-0.51,-0.5
Cc1cc(C(=O)COc2ccccc2C(N)=O)c(C)n1C1CC1,·,-0.8
COc1c(N2C[C@@H]3CCCN[C@@H]3C2)c(F)cc2c(=O)c(C(=O)O)cn(C3CC3)c12,0.35,·
Cc1nn(C)c(Cl)c1S(N)(=O)=O,0.12,-1.0
O=C(NN(c1ccccc1)c1ccccc1)c1ccc(S(=O)(=O)N2CCOCC2)cc1,·,0.3
N/N=c1\nc2[nH]n(-c3ccccc3)c(=O)c2c2n1CCC2,·,-0.2
COC(=O)c1ccc(CN2c3cccc4cccc(c34)S2(=O)=O)o1,·,-1.8
COc1cccc(NC(=O)CN(C)C(C)C(=O)Nc2cc(Cl)ccc2OC)c1 (stereo not given),·,-0.1
COC(=O)c1c(C)[nH]c(C(=O)CSc2nnc3cc(C)c4ccccc4n23)c1C,·,-0.2
CCn1c(=O)cc(SCC(=O)N2CCC(C)CC2)c2ccccc21,-1.3,-2.7
O=C(CCN1C(=O)/C(=C\c2ccco2)SC1=S)NCCc1ccccc1,0.29,3.4
Cn1c(SCC(=O)c2ccc3[nH]c(=O)oc3c2)nnc1C1COc2ccccc2O1 (stereo not given),·,-1.2
Cc1cc(C)n(CCCO)c(=O)c1C#N,0.3,-1.9
CCOc1ccc(/C(O)=C2/C(=O)C(=O)N(CCN3CCOCC3)C23C(=O)N(C)c2ccccc23)cc1 (stereo not given),0.58,0.5
CN(C)CCNc1cnn(-c2ccccc2)c(=O)c1Cl,·,4.6
NC(=O)N1CCCC1C(=O)Nc1ccc2c(c1)CCC2 (stereo not given),·,0.0
CC(C)(C)C(=O)NC1CCN(CC(=O)N(C2CCCCC2)C2CCCCC2)CC1,-0.59,3.8
Oc1ccc(-c2onc3ccc(Cl)cc23)cc1,·,0.3
COC(=O)c1ccc(N2Cc3cccc(OC)c3Oc3ncccc32)s1,0.37,-3.1
CN1C2CCC1CC(OC(=O)C(CO)c1ccccc1)C2 (stereo not given),0.53&0.2&0.11,-1.3&1.0
COCC(=O)Nc1cc(F)cc(F)c1,0.09,-2.1
CC1(NC(=O)CCN2c3ccccc3Sc3ccccc32)CCS(=O)(=O)C1 (stereo not given),·,1.4
O=C(O)C1C2C=CC(O2)C1C(=O)Nc1ccc(S(=O)(=O)NCCc2ccccc2)cc1 (stereo not given),0.42,0.3
CC(Sc1nc2ccccc2[nH]1)C(=O)Nc1ccc(S(N)(=O)=O)cc1 (stereo not given),0.69,-3.3
CCC1(CC)C(=O)NC(=O)N=C1N,0.74,-1.9
Cc1ccc(SCC(=O)NC2CC2)cc1,-0.24,2.5
CC(=O)[C@@]1(O)CC[C@H]2[C@@H]3CCC4=CC(=O)CC[C@]4(C)[C@H]3CC[C@@]21C,0.5,·
Cc1ccc(Nc2nc(N)nc(CSc3cc(C)c4ccccc4n3)n2)cc1,·,-11
Cc1ccc(S(=O)(=O)NN=C(Cn2nnc3ccccc32)Cn2nnc3ccccc32)cc1,·,0.8
COc1ccc(OCCN2CCN(C3CC(=O)N(CCC(C)C)C3=O)CC2)cc1 (stereo not given),·,-1.3
COC(=O)c1ccc(C(=O)Nc2ccc3nc(C4CCCCC4)[nH]c3c2)cc1,·,0.1
CCc1cc2c3c(c1)C1(C(=O)N3C(C)(C)CC2C)C(C#N)=C(N)N2C(=C1C#N)Nc1ccccc12 (stereo not given),0.42,0.8
CCc1nnc2c(NC)nc3ccccc3n12,·,1.8
COC(=O)CC1C(=O)NCCN1S(=O)(=O)c1c(C)c(C)c(C)c(C)c1C (stereo not given),·,1.5
CCNC(=O)c1ccc(OCc2c(C)noc2C)c(OC)c1,·,-0.6
O=C1CCCC2(O)C1C(c1ccc(Cl)cc1Cl)NC(=O)N2Cc1ccccc1 (stereo not given),·,2.7
CCOc1ccc(-n2c(SCC(=O)O)nc3ccccc32)cc1,·,2.3

Following part:
Structure,KSHV LANA nucl,Ab BasE inh
O=C1CCCCC1CNc1cccc(C(F)(F)F)c1 (stereo not given),-0.17,0.6
CC(=O)NC(Nc1cc(C)ccc1C)C(=O)c1ccccc1 (stereo not given),0.73,0.2
COc1ccc(C2CCCN2C(=O)Nc2ccc(Cl)cc2)cc1OC (stereo not given),-0.54,-2.6
N#CC(C#N)=C(C(C#N)=C1Nc2ccccc2N1)c1ccccc1F,-0.015,-1.5
CC(C)c1ccc(N2C(=O)C3N=NN(CC(=O)Nc4ccccc4)C3C2=O)cc1 (stereo not given),0.36,1.6
O=C(Nc1ccccc1)NC1(C(=O)Nc2ccc(-n3cnnn3)cc2)CCCCC1,-0.94,1.4
Cc1cc(-c2csc(N)n2)c(C)n1CC1COc2ccccc2O1 (stereo not given),·,-1.8
CCC(=O)NC1CCNCC1,-0.76,2.4
Cc1ccc2nc(NC3=NC(CC(=O)O)C(=O)N3)nc(C)c2c1 (stereo not given),0.11,2.4
O=C(NCC(F)(F)F)c1ccc2ccccc2n1,·,0.4
COc1ccc(OCc2nnc(SCC(=O)NCc3ccco3)o2)cc1,-1.8,0.3
O=C(NCCOc1nnc(-c2ccccc2)o1)c1ccco1,-1.2,-0.2
Cc1nnsc1C(=O)NC1CCCCCC1,·,-3.6
NC(=O)CSc1nc(N)nc(N)n1,·,1.6
NC(N)=NC(=O)c1nc(Cl)c(N)nc1N,-0.89&0.073&0.044&0.035&2.4&-0.41,-1.8&-3.5&3.8
C=C(C)Cn1c(CO)nc2ccccc21,-1,1.6
CCN(CC)S(=O)(=O)c1ccc(Oc2ccc(Cl)cc2C)nc1,·,2.1
CCOC(=O)c1c(NC(=O)CC)sc(C(=O)OC)c1C,-0.71,1.5
CN1CC(=O)N(CN2CCN(S(=O)(=O)c3ccc(Br)cc3Cl)CC2)C1=O,·,-0.2
C[n+]1cc(C(=O)NCC[N+](C)(C)Cc2ccccc2)ccc1/C=N/O,·,2.1
CCOc1ccc(N2CC(C(=O)N(Cc3ccccc3)c3ccccn3)CC2=O)cc1 (stereo not given),0.12,-1.6
Cc1ccc(C)c(NC(=O)OCC(C)C)c1,-0.89,-0.5
C(=N\N1CCCCC1)/c1ccc2c(c1)OCO2,·,1.3
COc1ccc(Cc2nc(-c3ccccc3)n[nH]c2=S)cc1,·,0.7
O=C(Nc1ccncc1)OCc1ccccc1,-1.3,2.3

Following part.
Structure,KSHV LANA nucl,Ab BasE inh
O=C(Nc1cccc2c(=O)cc(-c3nn[nH]n3)oc12)c1ccc(OCCCCc2ccccc2)cc1,-0.19,·
CCCC(=O)Nc1ccc(C(=O)NCC2CCCO2)cc1 (stereo not given),1.1,-3.7
CCCCCCn1c(CN2CCC(C(N)=O)CC2)nc2c1c(=O)n(C)c(=O)n2C,-0.97,1.1
C=CCn1c(SCC(=O)N(CC(C)C)CC(C)C)nc2scc(-c3ccco3)c2c1=O,·,-2.7
CN(Cc1cccc(Cl)c1Cl)C(=O)c1cc(Cl)ccn1,·,-0.8
COc1ccc(-n2c(C(C)N3CCCCC3)n[nH]c2=S)cc1 (stereo not given),·,0.3
Cc1ccc(C=Nc2ccc(Br)cc2)cc1,·,0.4
CC(=O)SCC(C)C(=O)Nc1ccccc1 (stereo not given),-0.16,3.6
CCOC(=O)C1CCCN(C(=O)CSc2nc(N)c3ccccc3n2)C1 (stereo not given),·,4.0
CC(C)c1c(Br)c(=O)oc2c3c4c(cc12)CCCN4CCC3,·,21
COc1cc2cc(C3CC(c4ccco4)=NN3C(C)=O)c(Cl)nc2cc1OC (stereo not given),1.2,-0.9
CCn1c(CCC(=O)N2CCN(c3ccccn3)CC2)nc2cc(S(N)(=O)=O)ccc21,·,-1.9
COC(CNC(=O)CN1CCN(Cc2ccc(C)cc2)C1=O)OC,-0.11,0.2
CCOC(=O)/C(C#N)=C/c1ccc(-c2ccc(Cl)c(C(=O)OC)c2)o1,-1.3,13
O=C(Nc1cccc2ccccc12)N1CCC(Nc2nc3ccccc3o2)CC1,0.37,-1.3
O=C1CC(c2ccco2)CC2=C1C(c1ccccc1)C1=C(N2)c2ccccc2C1=O (stereo not given),-0.33,4.0
Cc1ccccc1-n1nc(C)c2c(C(=O)NN)cc(-c3ccncc3)nc21,·,-0.7
Cc1ccsc1C=Nc1ccc(C(N)=O)cc1,0.004,1.0
Cc1cc(C)c(C#N)c(SCC(=O)OC(C)C)n1,·,1.4
CCc1cc2c(SCC(=O)N(C)C3CCS(=O)(=O)C3)ncnc2s1 (stereo not given),·,-1.9
CC(C(=O)Nc1ccccc1C#N)N(C)Cc1nc2ccccc2c(=O)[nH]1 (stereo not given),·,0.6
O=C(CN1C(=O)C2CC=CCC2C1=O)N1CCSC1=NCc1ccccc1 (stereo not given),·,-3.9
C=CCN(C(=O)c1ccccc1SCC(=O)NCc1ccco1)c1nc2c(s1)CCCC2,·,-4.4
Cc1cc(C)n2nc(SCc3ccccc3C(=O)N3CCN(c4ccc(F)cc4)CC3)nc2n1,·,0.1
COC(=O)c1oc2c(c1C)C1(CCC2)SCCS1,-0.065,3.8
O=C1CC2CCCC(CN1)N2CC(=O)NCc1ccco1 (stereo not given),0.66,2.8
CN1CCCN(C(=O)c2ccc(Cl)cc2)CC1,-2.4,1.8
O=C(CSc1nncn1-c1ccccc1)NCC(F)(F)F,·,1.7
CC(C)(C)NC(=O)N1CCCN(c2ccc(C(F)(F)F)cn2)CC1,0.11,·
CC(/C=C/c1ccccc1)NC(N)=O (stereo not given),0.15,-0.4

Reformatted: 2 of the compounds above
CC(C(=O)Nc1ccccc1C#N)N(C)Cc1nc2ccccc2c(=O)[nH]1 (stereo not given)
  KSHV LANA nucl: ·
  Ab BasE inh: 0.6
O=C1CC(c2ccco2)CC2=C1C(c1ccccc1)C1=C(N2)c2ccccc2C1=O (stereo not given)
  KSHV LANA nucl: -0.33
  Ab BasE inh: 4.0

Other compounds follow:
Structure,KSHV LANA nucl,Ab BasE inh
O=C(NCCN1C(=O)S/C(=C\c2ccc(Cl)cc2)C1=O)c1oc2ccccc2c1CSc1ncn[nH]1,·,2.7
O=C(c1cccs1)c1coc2c1cc(O)c1ccccc12,-0.056,3.2
CC1(C)C2CC=C(/C=N/NC(=O)NC3CCCCC3)C1C2 (stereo not given),·,0.9
c1ccc2c(c1)nc1n2CN(C2CCCCCC2)CN1,0.21,4.7
O=C(CC1SCCNC1=O)Nc1ccccc1 (stereo not given),-0.35,-0.3
CC(NC(=O)c1ccc(-n2cccc2)cc1)c1ccccc1 (stereo not given),·,-1.1
CN(C)/C=C/C(=O)c1ccc(-c2cc(C(F)(F)F)n(C)n2)s1,1.5,·

Entries from the list above that have a tert-butyl group (two):
Structure,KSHV LANA nucl,Ab BasE inh
CC(C)(C)C(=O)NC1CCN(CC(=O)N(C2CCCCC2)C2CCCCC2)CC1,-0.59,3.8
CC(C)(C)NC(=O)N1CCCN(c2ccc(C(F)(F)F)cn2)CC1,0.11,·

Record cards (already shown). Order of screens: KSHV LANA nucl	Ab BasE inh
Entry for `c1ccc2c(c1)nc1n2CN(C2CCCCCC2)CN1` : 0.21	4.7
Entry for `O=C(NCCN1C(=O)S/C(=C\c2ccc(Cl)cc2)C1=O)c1oc2ccccc2c1CSc1ncn[nH]1` : ·	2.7
Entry for `CN(C)/C=C/C(=O)c1ccc(-c2cc(C(F)(F)F)n(C)n2)s1` : 1.5	·
